High-throughput results (PubChem BioAssay)
miR-21 FLuc – qHTS Assay for Modulators of miRNAs and/orActivators of miR-21. HeLa miR-21 FLuc reporter, luciferase, 48 h. Potency, µM (highest dose often 38.3 µM), for inactives: at the highest dose reporter change, positive = more light. 340,000 tested, under 10 active; active = well fitted rising curve with a large enough effect; inconclusive = small, poorly fitted or top-dose-only effect; inactive = no such curve, though single readings can be large or run the other way;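 further: % of control where 0% means no effect; miR-21 action dims this reporter so a rising signal means less miR-21 action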
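HeLa cells stably expressing CMV-driven firefly luciferase with a downstream miR-21 binding sequence, endogenously expressing miR-21, were treated with titrations (up to about 40uM final) for 48 hours at 37 degree Celsius. Luciferase luminescence was read after lysis.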
Rango release inh – qHTS Assay for Inhibitors of RanGTP induced Rango (Ran-regulated importin-beta cargo) - Importin beta complex dissociation; Snurportin-1 (Homo sapiens) + GTP-binding nuclear protein Ran (Homo sapiens) + Importin …; Biochemical FRET Rango-importin beta, RanGTP-induced dissociation; Potency, µM (doses to about 46.1 µM), inactives show at the top dose activity change, negative = inhibition; 0.071% of 340,000 active; active means falling FRET ratio curve, often poorly fitted, with flat reads before Ran was added; inconclusive means other falling curves, or compound fluorescence or quenching; inactive means flat or rising ratio curve;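 further: potency means the concentration at half of the fitted maximal effect; % of control where 0% means no effect; nearly all actives have a fitted effect of over 45% in size; -100% = wells without RanGTP and RCC1; the record marks most hits as doubtful in a second field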
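Two FRET readings bracket the reaction: one 5 min after compound meets Rango–importin beta, another 45 min after RanGTP-RCC1 (0.6 uM Ran, 0.2 uM RCC1, 2 mM GTP) is added. Only the second defines inhibition.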
Rango complex inh – qHTS Assay for Inhibitors of Rango (Ran-regulated importin-beta cargo) - Importin beta complex formation. Potency, µM (doses to about 92.2 µM), for the others: at the highest dose inhibition of complex formation. Importin subunit beta-1 (Homo sapiens), Q14974. AID 540263, 2011. Rango CFP/YFP FRET sensor + importin beta, 45 min. 0.031% of 340,000 active; active = rising FRET ratio curve, often small or poorly fitted; inconclusive = mostly compound fluorescence or quenching in the first reads; inactive = flat curves in all reads;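 further: potency means the concentration at half of the fitted maximal effect; 0% = DMSO wells and 100% = buffer wells lacking importin beta; nearly all actives have a fitted effect of over 15% in size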
Target sequence (Q14974 whole entry, looked up): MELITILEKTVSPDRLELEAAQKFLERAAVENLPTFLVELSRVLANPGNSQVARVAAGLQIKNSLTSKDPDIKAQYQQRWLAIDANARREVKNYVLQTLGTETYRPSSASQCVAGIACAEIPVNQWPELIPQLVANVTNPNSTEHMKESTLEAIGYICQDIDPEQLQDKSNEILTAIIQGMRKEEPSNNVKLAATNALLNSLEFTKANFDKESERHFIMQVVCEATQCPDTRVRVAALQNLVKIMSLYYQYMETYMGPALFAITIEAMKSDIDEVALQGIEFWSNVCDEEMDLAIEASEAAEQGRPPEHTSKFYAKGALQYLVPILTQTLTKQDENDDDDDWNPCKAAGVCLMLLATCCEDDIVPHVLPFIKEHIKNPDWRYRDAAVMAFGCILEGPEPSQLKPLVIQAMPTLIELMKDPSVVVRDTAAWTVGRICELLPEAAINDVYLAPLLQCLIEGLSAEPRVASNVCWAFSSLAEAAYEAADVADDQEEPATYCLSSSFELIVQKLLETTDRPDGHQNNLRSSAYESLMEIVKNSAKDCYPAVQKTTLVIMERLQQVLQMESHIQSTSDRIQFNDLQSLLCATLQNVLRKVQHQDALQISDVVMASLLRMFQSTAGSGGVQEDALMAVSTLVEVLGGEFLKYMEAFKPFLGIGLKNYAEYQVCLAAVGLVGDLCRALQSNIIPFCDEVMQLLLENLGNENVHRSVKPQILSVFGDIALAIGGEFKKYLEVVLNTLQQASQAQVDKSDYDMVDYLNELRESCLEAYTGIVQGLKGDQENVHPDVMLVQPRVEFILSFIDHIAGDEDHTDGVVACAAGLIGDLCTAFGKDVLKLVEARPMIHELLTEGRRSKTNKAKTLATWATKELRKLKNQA
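FRET biosensor (snurportin 1 IBB flanked by EYFP and cerulean), 50 nM, with compound 5 min, then 0.125 microM importin beta in PBS, 1 mM DTT, 0.02% Tween-20, 0.1% BSA. CFP/YFP ratio read after 45 min at room temperature; pre-read flags interference.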
GLA inh pH 4.5 – qHTS Assay for Inhibitors of Human alpha-Galactosidase at pH 4.5; Alpha-galactosidase A (Homo sapiens), P06280; purified enzyme, 4-MU-alpha-Gal fluorescence, pH 4.5; activity change, negative = inhibition, % at 105 µM; 230,000 tested, under 10 active; AID 1467, 2008; inconclusive = small, poorly fitted or top-dose-only inhibition, or a rising curve; inactive = flat fitted curve, though single readings scatter; no compound was filed as active;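 further: 0% = full activity with enzyme and -100% = basal without enzyme; dose as in the result columns while the protocol names 77 µM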
* = called active by the depositor; ? = inconclusive; · = no result given; & = joins results of further samples. Not all compounds are listed; rates above refer to the full screens.

Every second line gives: miR-21 FLuc, Rango release inh, Rango complex inh, GLA inh pH 4.5
C#CCOCCOCCOCCNc1nc(N2CCN(C(=O)C(Cc3cc4ccccc4[nH]3)n3cc(C(N)C(C)CC)nn3)CC2)nc(N2CCN(C(=O)C(Cc3cc4ccccc4[nH]3)n3cc(C(N)C(C)CC)nn3)CC2)n1 (stereo not given)
  0%, 1%, -1.2%, -3
O=C(C1CCCN(Cc2cccnc2)C1)N1CCCCC1 (stereo not given)
  -10%, 13%, -1.7%, -11
Cc1nnc(NC(=O)CCC(=O)NC2CCCCCCC2)s1
  -6%, -5%, -1.7%, ·
CCCc1nc(SCC(=O)Nc2nnc(CC)s2)c2c(C)c(C)sc2n1
  -2%, 3%, ?, 1
COC(=O)c1sc(NC(=O)C(C)c2ccccc2)nc1C (stereo not given)
  -13%, 3%, -2.9%, -1
COc1cc(OC)c(C#N)c(S(=O)Cc2ccccc2)c1 (stereo not given)
  -9%, 4%, ?, 2
c1nc2sc3c(c2c2nnnn12)CCC3
  7%, 9%, 0.1%, -4
CC1CCCC(C)N1/N=C/C=C/c1ccccc1[N+](=O)[O-] (stereo not given)
  -41%, -13%, -3.1%, -6
Fc1cc(F)c2nc(N3CCCCC3)sc2c1
  -35%, 13%, 0.0%, -1
C/C(=N\O)c1noc(C)c1C(=O)Nc1nccs1
  6%, 1%, -1.4%, ·
CN(C(=O)Cn1nc(C(=O)O)c2ccccc2c1=O)C1(C#N)CCCCC1
  ·, 14%, -0.6%, ·
COCCN(C(=O)CNC(=O)c1ccco1)C(C(=O)NC1CCCC1)c1ccccc1F (stereo not given)
  -5%, 2%, -1.4%, ·
CN(C(=O)C1CCC(CNS(=O)(=O)c2cccc3cccnc23)CC1)C1CCCCC1 (stereo not given)
  3%, -14%, -0.6%, ·
CCCc1ncc(CN2CCCCC2C(=O)Nc2ccc(Oc3ccccc3)nc2)cn1 (stereo not given)
  ·, -9%, 1.1%, ·
CCOc1ccccc1Nc1nnc(C)c(=O)[nH]1
  0%, -9%, -1.8%, -8
O=C(O)CSCC(=O)N1CCN(c2cc(C(F)(F)F)nc3ccccc23)CC1
  -1%, 1%, 0.2%, ·
O=c1c2[nH]c3ccc(Br)cc3c2ncn1CCCn1ccnc1
  -11%, -19%, -0.4%, 3
CCOc1ncccc1C(=O)Nc1ccc(Cl)cc1
  -17%, -10%, 0.0%, -11
O=C(c1ccc(CS(=O)c2cccc(Cl)c2)o1)N1CCOCC1 (stereo not given)
  -3%, 24%, ?, ·
CC(C)(C)C(=O)OCc1nc(-c2ccc(F)cc2)cs1
  -58%, -5%, -1.3%, -6
CSCCC1NC2(C(=O)Nc3ccc(Cl)cc32)[C@@H]2C(=O)N(C3CCCC3)C(=O)[C@H]12 (stereo not given in full)
  -4%, 22%, -4.0%, 2
Oc1cc2c(cc1C(c1ccc(Br)cc1)N1CCCC1)OCO2 (stereo not given)
  -3%, -5%, -0.8%, 3
Cc1cccc(C(=O)N2CCCC(c3nc(-c4ccc(F)cc4)no3)C2)c1 (stereo not given)
  -5%, -11%, 0.4%, ·
COc1cc(C(=O)N2CCC(n3cnc4cc(F)ccc43)CC2)cc(OC)c1OC
  1%, 22%, -2.9%, -3
Cn1cc(C(=O)NS(=O)(=O)Nc2ccc(Br)cc2)c2ccccc21
  4%, -6%, -3.7%, ·
CC(NC(=O)/C(C#N)=C/c1ccc(OCC(=O)O)cc1)c1ccccc1 (stereo not given)
  0%, -9%, 1.4%, ·
COc1cnc(-c2ccccc2)[nH]c1=O
  2%, 5%, 3.4%, -4
C=CCNc1nc(N)c(C(=C(C#N)C#N)c2ccc(Br)cc2)s1
  -5%, ?, ?, 10
Cc1nc(CC(=O)Nc2nccs2)cs1
  0%, -6%, 0.3%, ·
COc1ccc(CC(=O)OC(C)CN2CCCCC2)cc1 (stereo not given)
  0%, 0%, 0.7%, -1

Filtered by structure, the compounds so far containing a COOH group (three)
Every second line gives: miR-21 FLuc, Rango release inh, Rango complex inh, GLA inh pH 4.5
CN(C(=O)Cn1nc(C(=O)O)c2ccccc2c1=O)C1(C#N)CCCCC1
  ·, 14%, -0.6%, ·
O=C(O)CSCC(=O)N1CCN(c2cc(C(F)(F)F)nc3ccccc23)CC1
  -1%, 1%, 0.2%, ·
CC(NC(=O)/C(C#N)=C/c1ccc(OCC(=O)O)cc1)c1ccccc1 (stereo not given)
  0%, -9%, 1.4%, ·

Other records:
Every second line gives: miR-21 FLuc, Rango release inh, Rango complex inh, GLA inh pH 4.5
CC(NCc1ccccc1)c1ccccc1O (stereo not given)
  -14%, -6%, 3.2%, -4
Cc1cccc(NC(=S)N2CCn3cccc3C2c2cccnc2)c1 (stereo not given)
  -6%, -23%, 1.7%, -4
Cc1cc(F)ccc1NC(=O)CCc1ccc(S(=O)(=O)N2CCOCC2)cc1
  ·, 32%, -4.4%, ·
N#Cc1c(-c2ccccc2F)cc(C2CC2)nc1SCC(=O)c1cccs1
  -18%, ?, ?, -4
C/C(=N/NC(=O)c1ccco1)c1ccc(NC(=O)c2ccc(Br)o2)cc1
  -32%, -9%, 2.9%, ·
On1cnnc1-c1ccccc1
  0%, 0%, 0.6%, -1
CCCCCNc1nc(NCCCO)c(C#N)c2c1CN(C)CC2
  0%, ?, ?, -8
Cc1ccc2[nH]c(=O)c(CN(Cc3ccc4c(c3)OCO4)Cc3nnnn3Cc3ccco3)cc2c1
  0%, -7%, -1.1%, -1
c1ccc(COc2ccc(Oc3nc(N4CCCCC4)nc(N4CCOCC4)n3)nn2)cc1
  -10%, 2%, -4.6%, -5
Clc1ccc(-n2nnnc2SCc2cn3ccccc3n2)cc1
  -12%, -11%, -2.5%, 1
Cc1ccc(C(=O)NCc2nnc(SCC(=O)Nc3ccccc3)n2C)cc1
  -1%, -5%, ?, 1
CN(c1ccccc1)S(=O)(=O)c1cccc(NC(=O)Cc2c(F)cccc2Cl)c1
  0%, 6%, -2.8%, -4
CCOc1ccc2nc(NC(=O)c3ccc(S(=O)(=O)N4CCOCC4)cc3)sc2c1
  -3%, -9%, -0.8%, 1
c1ccn2cc(C34CC5CC(CC(C5)C3)C4)nc2c1
  -8%, -11%, -3.1%, 4
COc1ccc(COc2cc(-c3cccc(OC)c3)nc3ccc(NC(=O)c4cccnc4)cc23)cc1
  17%, 1%, -0.2%, -7&-13
C[C@@H](NC(=O)c1cc2c([nH]c3ccccc32)c(-c2ccccc2)n1)C(=O)O
  -6%, 4%, -2.5%, ·
COc1ccc(C2NC(=O)CS2)cc1 (stereo not given)
  -1%, -29%, -5.2%, -3
O=C(NCc1ccccc1)C1CC(=O)N(c2ccc(OCC(=O)N3CCCC3)cc2)C1 (stereo not given)
  -7%, -11%, -1.9%, 6
COc1ccc(NS(=O)(=O)c2cc(N=Nc3c(O)[nH]c(=O)[nH]c3=O)ccc2Cl)cc1
  ·, 5%, -2.4%, ·
CCOC(=O)CCCCCC(=O)Nc1ccc2c(c1)C(=O)N([C@H](C)CO)C[C@@H](C)[C@H](CN(C)Cc1ccc3c(c1)OCO3)O2
  ·, -11%, 1.2%, ·
CC(=O)OC1c2c(ccc3ccc(=O)oc23)OC(C)(C)C1OC(=O)CC(C)C (stereo not given)
  -9%, 4%, -0.1%, -1&-6
COc1ccccc1CNS(=O)(=O)c1cccs1
  -11%, 7%, -0.1%, ·
COc1ccc(NC(=O)Nc2nnc(-c3cccs3)s2)cc1
  -42%, -4%, -0.7%, 0
CCCn1c(N)c(C(=O)CSc2nc(C)cs2)c(=O)n(C)c1=O
  16%, 2%, -1.0%, -8
Cc1cc(C)n(CCC(=O)N2CCN(S(=O)(=O)c3ccc(C)c(C)c3)CC2)n1
  -1%, -6%, 2.2%, ·
CCN1C(=O)CSc2ccc(C(=O)NC3CCCCC3)cc21
  -19%, ?, ?, 0
O=C(Nc1ccc(CN2CCS(=O)(=O)CC2)cc1)c1ccc(C(F)(F)F)cc1
  17%, -9%, 1.5%, -2
CSc1nsc(NC(=O)Cc2ccccc2)n1
  -26%, -12%, 2.8%, -8
CCOC(=O)C1(Cc2ccc(Cl)cc2)CCN(C(=O)CCc2cnccn2)CC1
  0%, 12%, 1.7%, 1
O=C(CCC(=O)c1ccc(F)cc1)Nc1cccnc1
  -7%, ?, ?, -20
Cc1csc(C(=O)NN)c1N(C)C
  -47%, 1%, 3.2%, -3
CC(C(=O)Nc1ccc(S(=O)(=O)N2CCCC2)cc1)N1CCCC(C(N)=O)C1 (stereo not given)
  ·, 20%, 0.6%, ·
CC(c1nccs1)N(C)c1nc2nonc2nc1NC1CC1 (stereo not given)
  -1%, -14%, ?, -5
O=C(NCCNC(=O)c1ccccc1F)c1ccco1
  0%, 10%, 3.1%, ·
c1coc(CNc2ncnc3ccccc23)c1
  6%, -4%, -0.5%, 8
CC(Sc1nnc(-c2ccco2)o1)C(=O)NCCC1=CCCCC1 (stereo not given)
  -3%, 2%, -3.3%, -7
CC(C)n1c(CNC(=O)c2ccccc2F)nnc1SCC(=O)NC1CCCCC1
  ·, -1%, -2.2%, ·
COc1cccc(/C=N/NC(=O)C(=O)N/N=C/c2cccc(OC)c2O)c1O
  0%, -7%, 0.1%, -12
C=CCn1c(-c2ccccc2)ccc(C#N)c1=O
  -10%, 14%, 2.6%, 3
Cc1ccc(C(=O)Nc2c(C(=O)N3CCOCC3)cnn2-c2ccccc2)cc1
  -8%, -5%, -0.1%, 7
CN(c1ccccc1)c1ccc(/C=c2\s/c(=C(/C#N)C(=O)C(C)(C)C)n(Cc3ccco3)c2=O)cc1
  -3%, ·, ·, 5
O=C1OC(=O)c2cc([N+](=O)[O-])ccc21
  ·, -9%, 0.5%, ·
Cc1ccc2cc(CN(Cc3ccc(F)cc3)Cc3nnnn3C3CCCC3)c(=O)[nH]c2c1
  -15%, -8%, -3.0%, -13
COc1cccc(NC(=O)N[C@@H](Cc2ccccc2)C(=O)O)c1
  -15%, 15%, 0.3%, 7
CC(C)C(=O)N1CCC(n2nccc2NC(=O)CCOc2ccccc2)CC1
  -13%, 1%, -0.5%, ·
N/C(=N\NC(=O)c1cccc(F)c1)c1cc2ccccc2oc1=O
  -17%, 3%, -0.7%, -3
Fc1cccc(Nc2nc3ccccc3n3nnnc23)c1
  -23%, -11%, -5.1%, 2
Cc1ccc(Nc2ncc(C(=O)NCCCN3CCN(C)CC3)c3ccccc23)cc1Cl
  -8%, 8%, -3.5%, -5
COc1ccccc1-n1cnc2c(c1=O)c1nc3ccccc3nc1n2-c1ccc(C)c(C)c1
  -1%, -11%, -2.0%, 6
CC1Cc2ccccc2N1C1=NS(=O)(=O)c2ccccc21 (stereo not given)
  -10%, 35%, 4.7%, 8
O=C(CNC(=O)c1cc2c(s1)CCC2)Nc1ccccc1Br
  -28%, -27%, ?, 4
CC1=CC2(C#N)C3(N=C(N)C2(C#N)C(c2ccccc2)N1)OCCO3 (stereo not given)
  1%, -21%, -3.0%, 2
O=C(c1cc(Cl)ccc1O)N1CCN(S(=O)(=O)Cc2ccccc2)CC1
  ·, 8%, -2.5%, ·
CN(C)c1cc(-c2ccc(Cl)cc2)oc(=O)c1Cl
  -14%, 9%, -3.9%, -12
COc1ccccc1NC(=O)c1ccc(NC(=O)COC(=O)C2CCCO2)cc1 (stereo not given)
  -2%, -9%, 3.8%, 2
C/C(=N/NS(=O)(=O)c1ccc(F)cc1)c1ccncc1
  -1%, 0%, 1.8%, ·
C/C(=N\NC(=O)c1c(C)nc2ccccn12)c1ccc(N2CCOCC2)cc1
  -17%, 1%, 0.6%, 5
